Sa helicase inh: inhibitors of S. aureus replicative helicase, primary screen, biochemical, fluorescence unwinding readout | 120,000 compounds, 0.05% hits | replicative DNA helicase (DnaC/DnaB), Staphylococcus aureus | inhibition, %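 (tested at about 80 µM)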 | purified S. aureus helicase, fluorescence unwinding assay; about half of the hits fall short of the stated cut;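 active = both duplicates at 50% or more, or one of them with a favoured structure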;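 also: 0% = mean of negative control wells and 100% = mean of positive control wells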
MgrA DNA FP: S. aureus MgrA activity modulators, primary screen, biochemical, S. aureus Newman, fluorescence polarization | MgrA-DNA binding | 84,000 compounds, 0.13% hits | inhibition, %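 (about 10 µg/mL by stock and volumes)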;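 active = above 50% in either of two replicates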;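 also: 0% = protein plus DNA without compound and 100% = DNA alone without protein; higher means less MgrA bound to DNA so lower polarization; one replicate is shown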
* = called active by the depositor; · = not tested or not shown; & = joins results of further samples.

SMILES	Sa helicase inh	MgrA DNA FP
Cc1ccc(NS(=O)(=O)c2ccc3c(c2)n(C)c(=O)n3C)cc1	-21	·
CCOC(=O)NC(=S)N1CCOCC1	·	-1.6
Cc1cc2cc(CNC(=O)CCCc3ccccc3)ccc2n1C	16	·
Cc1cc(Oc2cc(C#N)c(C#N)cc2N2CCOCC2)cc(C)c1Cl	8	-0.2
COc1cc(-c2nc3sc4c(c3c(=O)o2)CCC4)cc(OC)c1OC	12	·
COc1ccc(C)cc1-n1c(N)c(C#N)c(C#N)c1-c1ccc(OC)c(OC)c1OC	2	·
O=[N+]([O-])c1ccc(-c2csc(-c3ccc(Cl)cc3)n2)cc1	·	3.5
Cc1nc(-c2ccccn2)nc(SCc2ccccc2)c1Cl	·	-1.1
O=C(Nc1sc2c(c1C(=O)O)CCCC2)c1ccccc1	-1	·
COc1ccc(S(=O)(=O)NC2CCCCCC2)cc1C	-25	·
Cn1c2c(c3ccccc31)C(C)(C)NC(C)(C)C2	18	·
Cc1cccc(/C=C2\Sc3ccc(C(=O)N4CCC(C)CC4)cc3N(C)C2=O)c1	3	-1.5
CC(C)(C)c1cc(CCC(=O)O)cc(C(C)(C)C)c1O	1	-0.1
NS(=O)(=O)c1ccc(NC(=O)COC(=O)Cc2ccccc2)cc1	-6	·
Cc1ccccc1NC(=O)C(C)n1c(C(F)(F)F)nc2ccccc21 (stereo not drawn)	·	-2.2
CNC(=O)C(Cc1ccccc1)N1C(=O)C2C3C=CC(C3)C2C1=O (stereo not drawn)	2	·
O=S1(=O)CCC(c2n[nH]c(=S)o2)C1 (stereo not drawn)	-14	·
CC1=C(Oc2ccc(Cl)cc2)C(C)(O)N=C(C(F)(F)F)N1 (stereo not drawn)	·	-1.1
CN(C)c1ccc(C(=O)NNC(=S)NC2CC3C=CC2C3)cc1 (stereo not drawn)	·	-1.6
CCOC(=O)C1CCN(C(=O)C(C)n2ncn3cccc3c2=O)CC1 (stereo not drawn)	1	·
NS(=O)(=O)c1ccc(NC=C2C(=O)OC3(CCCCC3)OC2=O)cc1	3	·
Cc1cc(-c2ccccc2)[nH]c(=O)c1S(C)(=O)=O	·	-0.8
COc1cc(OC)c(NC(=O)N2CCC3(CC2)N=C(c2ccc(C)c(C)c2)C(=O)N3)cc1Cl	-11	·
COc1ccc(-c2cc(-c3ccc(Cl)c(Cl)c3)nc(N)c2C#N)cc1OC	-5	-1.1
CCOC(=O)C1SC(C)=NC1=O (stereo not drawn)	-18	·
NC(N)=NCCS(=O)(=O)O	·	1.4
CC(C)=CCc1c(O)cc(O)c2c1OC(c1ccccc1)CC2=O (stereo not drawn)	7	1.8
CCOC(=O)NN1C(=O)c2cccc3cccc(c23)C1=O	·	3.2
CCOC(=O)c1cnn(-c2c(Cl)cc(Cl)cc2Cl)c1C	·	0.9
COc1ccc(-c2cc3nc(C)c(CCC(=O)N4CCc5ccccc54)c(C)n3n2)c(OC)c1	7	·
COC(=O)c1cc(OC(=O)Cc2coc3cc(OC)ccc23)cc(C(=O)OC)c1	-9	·
Cc1ccc2c(CNC3CCCC3)c(C(=O)O)n(C)c2c1	8	-0.8
O=C(CSc1cccc2cccnc12)Nc1cccc(C(F)(F)F)c1	9	5.7
c1ccc(-n2ncc3c(N4CCN(Cc5nc6ccccc6[nH]5)CC4)ncnc32)cc1	·	-1.8
CCc1nnc(NS(=O)(=O)c2ccc(NC(=O)C(C)C)cc2)s1	-4	·
COC(=O)c1cc(NC2=NS(=O)(=O)c3ccccc32)cc(C(=O)OC)c1	-1	·
COCCN(C(=O)Nc1ccc(OC)cc1OC)C1CCN(C(C)=O)CC1	4	-0.3
CCc1ccccc1NC(=O)CCCn1sc2ccccc2c1=O	13	0.7
Cc1ccc(S(=O)(=O)c2c[nH]c3cc4c(cc3c2=O)OCO4)cc1	8	·
Cc1cccc(OCCN)c1C	-1	-0.2
Nc1ccc(OCCOc2ccc(N)cc2)cc1	6	-1.7
CCCN1CCC(NC(=O)Nc2ccc(OC)c(OC)c2)CC1	-6	0.2
COc1ccccc1C1=NN(C(=S)Nc2ccccc2)C(c2ccco2)C1 (stereo not drawn)	8	0.4
COC(=O)c1cc(OC)c(OC)cc1-n1cnc2cc(OC)c(OC)cc2c1=O	9	·
Cc1ccc(SCC(=O)N=C2NC(=O)CS2)cc1	-1	1.9
CC1CC(C)CN(C(=O)c2ccc(S(=O)(=O)N3CC(C)CC(C)C3)cc2)C1 (stereo not drawn)	8	·
CCOc1ccc(S(=O)(=O)NCC(=O)NC2CCCCC2)cc1	-8	·
Cc1ccc(C(=O)COc2cc(C)nc3nncn23)cc1	·	1.5
O=C(Nc1sc2c(c1C(=O)Nc1ccccc1)CCCC2)c1ccccc1	1	-0.8
O=C(NC1CCCC1)c1cc(=O)[nH]c2ccc(S(=O)(=O)N3CCCC3)cc12	3	1.4

Some of the entries above in a different format.
Sa helicase inh,MgrA DNA FP,Molecule
3,1.4,O=C(NC1CCCC1)c1cc(=O)[nH]c2ccc(S(=O)(=O)N3CCCC3)cc12
6,-1.7,Nc1ccc(OCCOc2ccc(N)cc2)cc1

Going on with the list:
SMILES	Sa helicase inh	MgrA DNA FP
Cc1[nH]c(=O)[nH]c(=O)c1S(=O)(=O)N1CCCCC1C (stereo not drawn)	6	1.4
Cc1cccc(NC(=S)NC(C)(C)C)c1	2&2	0.3
Oc1ccccc1C=Nc1ccc2ncccc2c1	3	1.4
CCOC(=O)c1cnc(Nc2ccc(C)cc2)nc1C(F)(F)F	·	-0.9
CCc1ccc(-c2ncnn2-c2cccc(Cl)c2C)cc1	3	0.0
CC(=O)Oc1ccc2c(=O)c(Oc3ccc(Cl)cc3)coc2c1	-8	·
O=C(CN1C(=O)C2CC=CCC2C1=O)OCc1cc(=O)n2c(n1)sc1ccccc12 (stereo not drawn)	13	·
CCCCc1c(O)nc(SCCC(=O)O)[nH]c1=O	7	-0.2
CC1(C)CC(=O)C(C=NCC2CCN(C(=O)Nc3ccccc3)CC2)=C(O)C1	-35	·
Cc1cc(C)n(NC(=S)NC2CCCCC2)c(=O)c1C#N	-25	·

Not a retest: 4 of the compounds above.
SMILES	Sa helicase inh	MgrA DNA FP
Cc1cccc(NC(=S)NC(C)(C)C)c1	2&2	0.3
Oc1ccccc1C=Nc1ccc2ncccc2c1	3	1.4
CCOC(=O)c1cnc(Nc2ccc(C)cc2)nc1C(F)(F)F	·	-0.9
CCc1ccc(-c2ncnn2-c2cccc(Cl)c2C)cc1	3	0.0

(cont.)
SMILES	Sa helicase inh	MgrA DNA FP
C=CCn1c(SCC(=O)NCCCN2CCOCC2)nc2sc3c(c2c1=O)CCCC3	·	-0.8
O=C(O)C(C(=O)/C=C/c1ccccc1)=C1SCCS1	-10	·
Cc1ccc(C)c(NC(=O)CSCc2cnn(-c3ccccc3)c2-n2cccc2)c1	16	·
COc1cccc(NC(=S)NNC(=O)CSCc2c(Cl)cccc2Cl)c1	·	4.5
COC(=O)c1ccc(Cn2nc(C)c(Br)c2C)o1	4	·
CCOC(=O)CSc1nnc(NCC(=O)OC)c(=O)[nH]1	-10	·
C/C(=N\NC(=O)CN1C(=O)c2cccc3cccc1c23)C(C)(C)C	-9	·
Cc1ccc(Cl)cc1N1CCN(C(CC(=O)O)C(=O)c2ccc(F)cc2)CC1 (stereo not drawn)	14	·
COc1ccc(-c2nnc(SCC(=O)Nc3cc(C(C)(C)C)nn3-c3ccccc3)o2)cc1	-1	·
C(/C=C/c1ccccc1)=Nc1ccccc1	·	3.8

Some values from the list.
C=CCn1c(SCC(=O)NCCCN2CCOCC2)nc2sc3c(c2c1=O)CCCC3 – MgrA DNA FP: -0.8
Cc1ccc(Cl)cc1N1CCN(C(CC(=O)O)C(=O)c2ccc(F)cc2)CC1 (stereo not drawn) – Sa helicase inh: 14

The main list resumes; the 6 compounds before the break are reprinted first.
SMILES	Sa helicase inh	MgrA DNA FP
COC(=O)c1ccc(Cn2nc(C)c(Br)c2C)o1	4	·
CCOC(=O)CSc1nnc(NCC(=O)OC)c(=O)[nH]1	-10	·
C/C(=N\NC(=O)CN1C(=O)c2cccc3cccc1c23)C(C)(C)C	-9	·
Cc1ccc(Cl)cc1N1CCN(C(CC(=O)O)C(=O)c2ccc(F)cc2)CC1 (stereo not drawn)	14	·
COc1ccc(-c2nnc(SCC(=O)Nc3cc(C(C)(C)C)nn3-c3ccccc3)o2)cc1	-1	·
C(/C=C/c1ccccc1)=Nc1ccccc1	·	3.8
COC(=O)c1cc(NC(=O)c2ccco2)cc(C(=O)OC)c1	6	-2.7
O=C(CSC1=NS(=O)(=O)c2ccccc21)Nc1ccc(Br)cc1	-6	6.2
CCOC(=O)c1nnn(-c2nonc2N)c1CN1CCSCC1	-2	-0.7
CCCSC1=C(C#N)C(c2cc(Br)c(O)c(OC)c2)CC(=O)N1 (stereo not drawn)	-13	·
NC(C(=O)O)C(c1ccc(O)cc1)C(F)F (stereo not drawn)	-11	·
CCc1ccc(NC(=O)c2cc3ccccc3oc2=O)cc1	7	3.5
COC(=O)C1=C(C)NC(C)=C(C(=O)OC)C1C(=O)OCC(=O)c1cc(C)n(C2CC2)c1C	4	·
N/C(=N\NC(=O)Nc1ccccc1)c1ccc(C(F)(F)F)cn1	-46	·
O=C(Nc1ccccc1Cl)Nc1ccccc1Cl	3	-0.3
O=C(CSc1ncnc2c1nnn2Cc1ccc(F)cc1)NC1CCCC1	6	·
COc1ccc(NC(=O)N2CCc3ccccc3C2)cc1	-3	2.2
CSc1cc(-c2sc(-c3cccs3)nc2C)[nH]n1	·	-1.2
Cc1ccc2nc(COC(=O)C(NS(=O)(=O)c3ccc4c(c3)OCCO4)C(C)C)cc(=O)n2c1 (stereo not drawn)	12	·
O=[n+]1cc(-c2ccco2)n([O-])c2c1CCCC2	-8	·
COc1ccc(S(=O)(=O)N2Cc3ccccc3CC2C(=O)N2CCOCC2)cc1OC (stereo not drawn)	5	2.4
COc1cccc(NC(=S)N(C)C2CCN(C)CC2)c1	12	-0.4
COc1ccccc1-n1c(-c2ccncc2)n[nH]c1=S	12	-0.5
CC(C)(C)c1ncc(C(=O)O)cn1	5	-4.0
Cn1cnc(S(=O)(=O)N2CCN(c3ccccn3)CC2)c1	-14	·
CC(C)c1cc(=O)n2[nH]cnc2n1	1	-2.1
CCOc1ccccc1CNC(=O)c1ccc2c(c1)N(C)CCS2	-3	-1.7
CCC(=O)Nc1nnc(-c2ccc(Cl)cc2)s1	2	·
CC(C)NC(=O)C1CC(c2ccccc2O)=NO1 (stereo not drawn)	18	-2.5
O=C1C=C(SCC(=O)Nc2ccc(Cl)cc2)SC(c2ccccc2)C1 (stereo not drawn)	·	-2.0
CCOC(=O)N1CCN(C(=O)CN(C2CCCCC2)S(=O)(=O)c2ccccc2)CC1	9	-1.6
Cc1ccc(CSc2nnc3c(n2)[nH]c2ccccc23)cc1	·	-2.8
CC(=O)N1CCC2(CC1)C/C(=N\NC(=S)Nc1ccc(C)cc1)c1cc(O)ccc1O2	23	·
COc1cccc(CC(=O)NN)c1	·	0.6
CN1C(=O)CC(c2cn(Cc3ccccc3)c3ccccc23)C1=O (stereo not drawn)	-1	5.3
CCN(CC)CC(O)CN=C1NS(=O)(=O)c2ccccc21 (stereo not drawn)	26	·
CN(C(=O)CSc1n[nH]c(=O)[nH]c1=O)c1ccccc1	11	·
C/C(=N\OC(=O)c1ccc(Cl)cc1)c1ccc[nH]1	3	·
Cc1ccc(CNC(=O)Cc2noc3ccccc23)cc1	·	2.0
CC(=O)Nc1ccc(Cl)cc1C(F)(F)F	1	-0.6
O=[N+]([O-])c1ccc(N2CCOCC2)cc1O	·	-2.3
N#C/C(=C\c1cc(Br)c(O)c(Br)c1)C(N)=O	3	·
COC(=O)c1ccc(NC(=S)N(CC(C)C)CC(C)C)cc1	-2	-0.8
CC1(C)Cc2ccccc2/C(=C(/C#N)c2ccccc2)N1	1	2.5
CCCCS(=O)CSc1nc(-c2ccc(OC)cc2)cc(-c2ccccc2)c1C#N (stereo not drawn)	3	3.8
CC1CN(S(=O)(=O)c2cccc(C(=O)OCC(N)=O)c2)CC(C)O1 (stereo not drawn)	-9	·
C1=Cc2ccccc2N2CC(c3ccc4ccccc4c3)N=C12 (stereo not drawn)	·	0.2
N#CCSc1ccc(Cl)cc1Cl	·	-2.2
O=C(O)CCCCn1c(=S)[nH]c2ccsc2c1=O	-14	·
Cc1nc2scc(-c3ccccc3)c2c(=O)n1/N=C/c1ccco1	5	·
CCC(Sc1nnc(N)s1)C(=O)Nc1ccc(S(N)(=O)=O)cc1 (stereo not drawn)	6	1.4
Cc1ccc(C(=O)CSc2[nH]c(=O)ncc2C)cc1	1	·
CC(C)(C)NCC(O)COc1ccccc1C1CCCC1 (stereo not drawn)	·	4.1
Cc1cc(C)n(NC(=S)NCc2cccs2)c(=O)c1C#N	·	-1.4
CCCC(=O)Nc1ccc2[nH]c(=O)[nH]c2c1	16	-0.8
Cc1nccn1-c1ccc(C(F)(F)F)cc1N	-25	2.5
More records:
SMILES	Sa helicase inh	MgrA DNA FP
NC(=O)/C=C\c1ccccc1Oc1ccccc1	·	-1.9
NC(=S)Nc1ccc2c(c1)OCCO2	3	·
COc1cccc(-c2nc3ccccc3c(=O)n2NC(=O)COc2ccc(Cl)cc2Cl)c1	·	-2.8
O=C(NCc1cccnc1)C1c2ccccc2C(=O)N1C1CCCC1 (stereo not drawn)	5	-4.1
CCOC(=O)C1=C(C)N=C2SCCC(=O)N2C1c1cccs1 (stereo not drawn)	·	-1.3
COc1ccc(OC)c(C(O)c2coc3ccc(O)c(CN(C)C)c23)c1 (stereo not drawn)	8	0.4
Cc1nn(-c2ccccc2)c(Cl)c1C(=O)NCc1ccco1	-17	2.1
COc1ccc(CNC(=O)C2CC(=O)N(C(C)(C)C)C2)cc1 (stereo not drawn)	-6	-4.7
O=C1NC(=S)S/C1=C/c1cc(Br)cs1	·	-1.0
CCSc1ncccc1C(=O)N[C@@H](CCSC)C(=O)OC	·	0.5
Cc1ccc(NC2=Nc3ccccc3SC2)cc1	-2	0.1

High-throughput results deposited in PubChem by ICCB-Longwood Screening Facility, Harvard Medical School.

A portion of the library (hit frequency here may not be typical).
